Screening results from PubChem BioAssay.
HTT prom inh: Primary qHTS for Identification of Small Molecule Inhibitors of Huntingtin Promoter Activity | HEK293 HTT promoter firefly luciferase reporter (activity 0% = vehicle and -100% = no light), 24 h | Potency, µM (doses to about 57.5 µM), without a hit: at the highest dose activity change, negative = inhibition, most hits filed as inhibitors | 0.93% of 48,000 active | AID 1508623, 2021; active means well fitted inhibition curve with a large enough effect; inconclusive means small, poorly fitted or top-dose-only effect; inactive means no such curve, though single readings can be large or run the other way; further: nearly all actives have a fitted effect of over 50% in size
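HEK293 cells carrying firefly luciferase reporters were seeded at 2,500 per well in Opti-MEM and cultured for 24 h. They were then treated with compounds at up to 57.5 uM final for 24 h at 37 degrees C before Dual-Glo luminescence readout.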
PMP22 txn prim: Cell-based coincidence reporter assay to measure PMP22 gene transcription in S16 Pmp22-F2sN cells - Primary screen. S16 Pmp22-F2sN Schwann cells (luciferase reporters placed in the Pmp22 gene), FLuc/NLuc coincidence luminescence, 24 h. Potency, µM (highest dose often 57.5 µM), for the others: at the highest dose activity change, negative = inhibition, actives largely listed as inhibitors. 2% of 43,000 active; active = clear falling dose curves in both reporters; inconclusive = both reporters move, but less clearly or upward; inactive = either reporter flat; the % is the NLuc reporter signal; further: on the % scale 0 is the no-effect control and ±100 the full control effect; some results filed as inactive show a strong effect at the top dose
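Reporter cells (S16 Pmp22-F2sN, 500–1,000 per well) exposed to compounds for 24 h, 37C, 5% CO2; lysis with FLuc read after 10 min, then Stop&Glo and NLuc read after 10 min.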
An asterisk follows results filed as active; ? = inconclusive; . = no result given; [ ] = remark or other dose. Potency means the concentration at half of the fitted maximal effect.

Below each compound – PMP22 txn prim	HTT prom inh
1	CCC(CC)C(=O)Nc1cc(-c2cn3cccnc3n2)ccc1OC
    5.7%	-14.6%
2	Cc1c(C)c2c(cc(C)c3c(-c4ccc(Br)cc4)coc32)oc1=O
    -7.7%	-3.4%
3	CC(=O)N1CCC(N(Cc2ccc(C)o2)C(=O)Nc2ccccc2F)CC1
    3.9%	3.1%
4	Cc1ccc(NC(=O)Cn2c(C)cc(C)c(C#N)c2=O)cc1
    6.2%	-3.1%
5	Cc1ccc(Cl)cc1Nc1nn2c(=O)c3ccc(C(=O)NCc4cccs4)cc3nc2s1
    8.43µM*	?
6	CC(=O)O[C@@H]1C(=O)O[C@@H]2[C@H]1OC(=O)[C@@H]2OC(C)=O
    .	-10.2%
7	CN(C)c1ccc(CNC(=O)c2ccc3nc(Cc4ccccc4)oc3c2)cc1
    ?	?
8	CCCNC(=O)N1[C@H](c2ccc(C)s2)[C@@H](C)C(=O)[C@@H](C)[C@@H]1c1ccc(C)s1
    ?	-15.6%
9	COc1cc(Cl)c(C)cc1NC(=O)CC1Oc2ccccc2NC1=O (centres undefined)
    ?	-23.2%
10	CCCSCCCNC(=O)CN1C(=O)CCn2nc(-c3cn(C)c4ccccc34)cc21
    2.7%	-9.7%
11	O=C(CCNS(=O)(=O)c1cccc2nsnc12)NCc1ccccc1
    1.1%	-3.7%
12	CCCCCn1c(CNC(=O)c2ccccc2)nc2ccccc21
    -32.1%	-8.2%
13	COc1ccc2nc(N(Cc3cccnc3)C(C)=O)sc2c1
    17.6%	-12.2%
14	Cc1cc2nn(-c3ccc(F)cc3)nc2cc1NC(=O)c1cc(Cl)ccc1Cl
    -2.2%	13.5%
15	Cc1ccccc1CNC(=O)Cc1ccc(NC(=O)N2CCCCc3ccccc32)cc1
    -26.7%	-24.2%
16	COc1ccc(Cn2c(=O)c3oc4ccccc4c3n(CC(=O)Nc3cc(C)cc(C)c3)c2=O)cc1
    -22.3%	4.1%
17	COc1ccccc1CN1C(=O)C(=O)c2cccc(C)c21
    -71.4%	-13.6%
18	Cc1ccc(OCC(=O)Nc2cccc(-c3nc4ccccc4o3)c2C)cc1C
    ?	?
19	COc1ccccc1N(CC(=O)N1CCC(C)CC1)S(=O)(=O)c1ccc(C)cc1
    -6.4%	-16.1%
20	COc1cccc(N2C(=O)N(CC(=O)NCc3cccc(OC)c3OC)c3ccccc3S2(=O)=O)c1
    -22.6%	-23.5%
21	Cc1ccc2nc(NC(=O)CSc3ncc(C(=O)Nc4ccccc4)c(=O)n3C)sc2c1
    -17.1%	6.2%
22	CCOc1ccc(S(=O)(=O)NCC(c2ccco2)S(=O)(=O)c2ccc(C)cc2)cc1 (centres undefined)
    ?	?
23	NC(=O)Cn1c(=O)n(CCCCCC(=O)NCc2ccc(F)cc2)c(=O)c2sccc21
    ?	3.0%
24	COc1cccc(CNC(=O)C2CCN(S(=O)(=O)c3cn(C)cn3)CC2)c1
    7.4%	-15.5%
25	Cc1ccccc1Cn1c(CN2CCCC(C)C2)nc2c1c(=O)n(C)c(=O)n2C (centres undefined)
    3.2%	-5.3%
26	COc1ccc(CN2CCCN(CC(=O)Nc3cc(C)ccc3C)S2(=O)=O)cc1
    -6.5%	-21.5%
27	Cc1ccc(NC(=O)CSc2nc3ccc(NC(=O)CCc4ccccc4)cc3s2)c(C)c1
    ?	4.0%
28	CCOc1ccc(OCC)c(NC(=O)C2CCN(S(=O)(=O)c3ccc4c(c3)CC(C)N4C(C)=O)CC2)c1 (centres undefined)
    -51.3%	-21.9%
29	COc1ccc(-c2nc3sc(CCNC(=O)Cc4ccccc4)c(C)n3n2)cc1
    -10.1%	-10.0%
30	COC(=O)NCC(c1cccnc1)N1CCN(c2ccc(F)cc2)CC1 (centres undefined)
    ?	-15.0%
31	COc1ccc(C2c3c(oc4ccccc4c3=O)C(=O)N2Cc2ccc3c(c2)OCO3)cc1 (centres undefined)
    -6.9%	-2.2%
32	Clc1ccc(C(c2ccc(Cl)cc2)n2cc[n+](CC(OCc3ccc(Cl)cc3Cl)c3ccc(Cl)cc3Cl)c2)cc1 (centres undefined)
    .	?
33	COc1ccc(N2CC(NC(=O)C(=O)c3c(C)[nH]c4ccccc34)CC2=O)cc1 (centres undefined)
    3.1%	-11.9%
34	O=C(O)Cn1nc(N2CCN(c3ccccc3)CC2)ccc1=O
    8.0%	2.4%
35	CCOc1ccccc1Nc1nc(-c2cccc(Cl)c2)c2c(n1)-c1ccccc1OC2
    -10.7%	16.1%
36	Cc1ccc(NC(=O)Cn2c(-c3ccc4c(c3)OCO4)cn(-c3ccccc3)c2=O)cc1C
    -1.7%	15.6%
37	CC(C)c1nn2c(=O)cc(COC(=O)c3cccc(NC(=O)c4cccs4)c3)nc2s1
    ?	-18.9%
38	CCOCCn1c(N2CCCN(C)CC2)nc2ccccc21
    .	-1.7%
39	Cc1ccc(Cn2cc(S(=O)(=O)c3ccc(Cl)cc3)c(=O)c3cc4c(cc32)OCO4)cc1
    -3.1%	-26.7%
40	Cc1ccc(C)c(NC(=O)CCS(=O)(=O)c2cccc3nsnc23)c1
    -5.4%	-15.5%

Profiles from above.
CCOc1ccccc1Nc1nc(-c2cccc(Cl)c2)c2c(n1)-c1ccccc1OC2 is listed as PMP22 txn prim: -10.7%; HTT prom inh: 16.1%
O=C(CCNS(=O)(=O)c1cccc2nsnc12)NCc1ccccc1 is listed as PMP22 txn prim: 1.1%; HTT prom inh: -3.7%

Further results.
Below each compound – PMP22 txn prim	HTT prom inh
41	CCC1CCCCN1CCCNC(=O)c1cc2c(Cl)nc3ccccc3c2s1 (centres undefined)
    17.8µM*	-20.0%
42	Cc1ccc(-c2nc3cc(Cl)ccc3o2)cc1NC(=O)c1cc([N+](=O)[O-])ccc1N1CCOCC1
    -12.0%	-4.9%
43	CCC(=O)N1CCc2cc(Br)cc(S(=O)(=O)CCC(=O)N3CCN(c4ccc(OC)cc4)CC3)c21
    3.6%	-5.9%
44	Cc1ccc(-c2cc(C(=O)NCCc3ccccc3)c3ccccc3n2)cc1C
    -75.5%	2.4%
45	COc1cccc(CN(C(=O)c2oc3cc(C)ccc3c2C)C2CCS(=O)(=O)C2)c1 (centres undefined)
    -13.2%	-10.4%
46	CCc1ccccc1NC(=O)Cn1c(=O)n(Cc2ccco2)c(=O)c2sc3ccccc3c21
    ?	-13.2%
47	CCOc1ccc2nc(N3CCCC(C(=O)Nc4ccc(OC)cc4)C3)sc2c1 (centres undefined)
    ?	44.2%
48	CCc1ccc(CNC(=O)Cn2nc(C)c3nn(-c4ccc(Cl)cc4)c(C)c3c2=O)cc1
    -17.2%	0.2%
49	CCn1cc(C(=O)OCC(=O)Nc2cc(Cl)ccc2C)c(=O)c2ccc(C)nc21
    -9.6%	-6.4%
50	COc1cccc(CNC(=O)CSc2ncc3c(n2)-c2cc(Cl)ccc2N(C)S3(=O)=O)c1
    -24.7%	-7.9%
51	CCC(C(=O)Nc1cc(OC)ccc1OC)n1c(=O)c(C(F)(F)F)nc2ccccc21 (centres undefined)
    ?	-8.3%
52	CCc1ccc(NC(=O)CSc2nc(=O)n(Cc3ccccn3)c3c2CCC3)cc1
    -5.2%	-0.2%
53	Cn1cnc(S(=O)(=O)N2CCC(C(=O)N3CCN(c4cccc(C(F)(F)F)c4)CC3)CC2)c1
    14.3%	-15.7%
54	CCOc1ccc(C(=O)Nc2ccc3nc(SCCOc4ccccc4)sc3c2)cc1
    10.6µM*	-3.9%
55	O=C(/C=C/c1ccccc1)Nc1nc(-c2cccs2)ns1
    -5.2%	18.8%
56	CCc1ccc(N2C(=O)N(CC(=O)C(C)(C)C)c3ccccc3S2(=O)=O)cc1
    -21.5%	-12.8%
57	COc1ccc(C2=CC(c3cccc(C)c3)n3nnnc3N2)cc1 (centres undefined)
    2.5%	-21.3%
58	CCC(=O)N1CCCc2cc(S(=O)(=O)N3CCC(C(=O)Nc4ccc(C#N)cc4)CC3)ccc21
    ?	-22.6%
59	CN(C)c1ccc(CNC(=O)C2CCN(S(=O)(=O)c3cn(C)cn3)CC2)cc1
    ?	-9.6%
60	Cc1ccc2c(CNCc3cccs3)c(C(=O)O)n(Cc3ccc(F)cc3)c2c1
    ?	?
61	CCCCC(CC)CNC(=O)CCCc1nnc2n(CCC)c(=O)c3sccc3n12 (centres undefined)
    ?	-6.6%
62	Cc1ccc(-n2ccn(CC(=O)c3ccc(F)cc3)c(=O)c2=O)cc1C
    -11.4%	-13.1%
63	COc1cccc(N2CC(NC(=O)C(c3ccccc3)c3ccccc3)CC2=O)c1 (centres undefined)
    ?	-27.8%
64	Cc1cccc(-c2nnn3c2nc(NCc2ccccc2)c2ccccc23)c1
    -28.0%	15.7%
65	CCOC(=O)c1c(NC(=O)COc2ccc(C(C)(C)C)cc2)sc2c1CCCC2
    -4.9%	0.0%
66	Nc1nonc1-c1nc2ccccc2n1Cc1ccc(Br)cc1
    -23.4%	-12.7%
67	COc1ccc(-n2ccn(Cc3ccccc3Cl)c(=O)c2=O)cc1OC
    -18.5%	-9.4%
68	COc1ccc2oc(=O)c(C(=O)N3CCN(c4cc(Cl)ccc4Cl)CC3)cc2c1
    -18.4%	-8.7%
69	CCCCN(CC)C(=O)c1cc2c(=O)n3cccc(C)c3nc2s1
    -37.8%	16.4%
70	COc1ccc(NC(=O)c2oc3ccccc3c2NC(=O)c2cc(OC)c(OC)c(OC)c2)cc1
    -8.3%	-10.3%
71	COc1cccc(CN2C(=O)CN(C3CCCCC3)C(=O)C2c2ccc(OC)c(OC)c2)c1 (centres undefined)
    -2.0%	-1.9%
72	CCOc1ccc(OCC)c(NC(=O)c2cc(S(=O)(=O)N3CCCC3)cn2C)c1
    -15.4%	-7.4%
73	COc1ccc(-c2ccc3c(N)c(C(=O)Nc4ccc(C(F)(F)F)cc4)sc3n2)cc1OC
    ?	?
74	Cc1cc(C)n(-c2nc3ccccc3nc2N2CCN(c3cccc(C)c3C)CC2)n1
    3.5%	7.5%
75	COc1ccccc1CNC(=O)c1cc(-c2ccccc2)n[nH]1
    ?	13.0%
76	CCOc1ccccc1NC(=O)Cn1c(=O)n(Cc2ccccc2)c(=O)c2cccnc21
    -11.2%	-15.7%
77	Cc1ccc2c(c1)c(=O)c(C(=O)c1ccccc1)cn2Cc1ccccc1F
    ?	?
78	CCOC(=O)c1cc(-c2ccccc2)n(CC(=O)Nc2cc(Cl)c(OC)cc2OC)c1C
    ?	2.1%
79	O=c1c(S(=O)(=O)c2cccc(Cl)c2)cn(Cc2ccccc2)c2cc(N3CCOCC3)c(F)cc12
    -22.3%	-7.6%
80	COc1ccc(CNC(=O)c2c3c(nc4ccccc24)C(=O)N(C2CCCCC2)C3)cc1
    ?	-11.5%
81	O=C(Nc1nc2nc(-c3ccccc3)cc(=O)n2[nH]1)c1ccc(Cl)cc1
    -30.9%	-12.2%
82	CCOC(=O)c1c(NC(=O)c2nc(SC(C)C)ncc2Cl)sc2c1CCCC2
    -21.8%	-11.4%
83	CCN(CC)C(=O)Cn1c(SCC(=O)Nc2ccc(F)cc2)nc2ccccc21
    -87.7%	-17.8%
84	Cc1cc(C)cc(NC(=O)CCS(=O)(=O)c2cc3c4c(c2)CCN4C(=O)CC3)c1
    -4.7%	-21.0%
85	COc1ccccc1C1CC(=O)N(c2cccc(C(F)(F)F)c2)C2=C1C(=O)OC2 (centres undefined)
    -22.5%	-18.1%
86	CCS(=O)(=O)N1CCc2cc(C(=O)Nc3ccc(C(=O)OC)cc3)ccc21
    8.9%	?
87	COc1cccc(NC(=O)/C(C#N)=C/c2c(C)n(Cc3ccc(Cl)cc3)c3ccccc23)c1
    -40.5%	-26.2%
88	O=C(Nc1cccc2cccnc12)c1ccc(F)cc1
    1.8%	65.0%[activator]
89	COc1ccc(CCNC(=O)c2ccc3c(c2)N(Cc2cccc(C)c2)C(=O)c2ccccc2S3(=O)=O)cc1OC
    -0.8%	8.0%
90	COc1cccc(C(=O)Nc2ccc3c(c2)CCCN3C(=O)c2cccs2)c1OC
    -74.4%	-24.6%
91	CC(C)NC(=O)CN1C(=O)CCn2nc(-c3cn(C)c4ccccc34)cc21
    -16.9%	22.3%
92	COc1ccc(NC(=O)N2CCN3CCCCC3C2)cc1OC (centres undefined)
    -9.5%	-4.9%
93	CCCSc1ncc(Cl)c(C(=O)Nc2ccc(S(=O)(=O)N(C)c3ccccc3)cc2)n1
    ?	?
94	CCS(=O)(=O)N1CCC(C(=O)NCCC(C)C)CC1
    0.8%	-15.6%
95	CC(=O)OC1=C(C(C)=O)N(Cc2ccccc2)S(=O)(=O)c2ccccc21
    12.0%	-11.1%
96	CCc1ccc(CN(Cc2ccco2)c2cnc(S(C)(=O)=O)nc2C(=O)Nc2ccc(C)c(Cl)c2)cc1
    11.2%	-11.8%
97	C=CC(=O)Nc1ccc2ncnc(Nc3ccc(OCc4cccc(F)c4)c(Cl)c3)c2c1
    .	-18.8%
98	CCOc1cc(C(Nc2cc(C)ccn2)c2ccc3cccnc3c2O)ccc1OC (centres undefined)
    10µM*	35.5µM*
99	Cc1cc(OCC(=O)N(Cc2ccc(N(C)C)cc2)CC2CCCO2)ccc1Cl (centres undefined)
    ?	-25.3%

Some values from above:
Entry for cpd 89 under PMP22 txn prim: -0.8%
Entry for cpd 84 under PMP22 txn prim: -4.7%
Entry for cpd 88 under PMP22 txn prim: 1.8%
